# Bioassay records: PubChem BioAssay, The Scripps Research Institute Molecular Screening Center
# PAFAH2 FP inh: inhibitors of human PAFAH2 | Q99487 | 340,000 compounds, 0.99% hits | recombinant PAFAH2, FP-rhodamine activity probe, fluorescence polarization | inhibition, % at 3.39 µM;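 active means inhibition above the mean over all tested compounds plus 3 SD, cut at about 30% in these data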;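 further: inhibitors block probe labeling of enzyme so polarization drops; 0% = enzyme with DMSO and 100% = wells lacking PAFAH2 protein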
# EBNA-1 inh: blocks EBNA-1 binding to DNA; 300,000 compounds, 0.34% hits; inhibition, % at 14.8 µM; EBNA-1 DNA binding, fluorescence polarization; AID 1950; in the data active means inhibition above about 28%
# LYPLA2 inh: blocks human lysophospholipase 2, a PME1 counter-screen. recombinant LYPLA2, FP-Rh probe fluorescence polarization. inhibition, % at 5.9 µM. 320,000 compounds, 0.38% hits. AID 2177;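 active means inhibition above the screen-wide mean plus 3 SD, limit set per campaign, cut at about 26% in these data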;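 further: 0% = LYPLA2 with DMSO and 100% = wells lacking LYPLA2 enzyme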
# pPAFAH FP inh: pPAFAH (human) enzyme inhibition | 330,000 compounds, 1.5% hits | AID 463082 | recombinant pPAFAH, FP-rhodamine probe fluorescence polarization | Q13093 | inhibition, % at 3.39 µM;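 active means inhibition above the mean inhibition across the screen plus 3 SD, cut at about 25% in these data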;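 further: inhibitors block binding of the rhodamine activity-based probe so polarization drops; 0% = enzyme with DMSO and 100% = wells lacking pPAFAH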
# LYPLA1 inh: LYPLA1 (human) inhibition in PME1 counter-screen; O75608; recombinant LYPLA1, FP-Rh probe fluorescence polarization; inhibition, % at 5.9 µM; 320,000 compounds, 0.16% hits;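 active means inhibition above the mean of all tested compounds plus 3 SD, set per campaign, cut at about 14% in these data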;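 further: inhibitors block serine hydrolase probe labeling of LYPLA1 so polarization falls; 0% = enzyme with DMSO and 100% = wells lacking LYPLA1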
# Target sequence (O75608 whole entry, looked up): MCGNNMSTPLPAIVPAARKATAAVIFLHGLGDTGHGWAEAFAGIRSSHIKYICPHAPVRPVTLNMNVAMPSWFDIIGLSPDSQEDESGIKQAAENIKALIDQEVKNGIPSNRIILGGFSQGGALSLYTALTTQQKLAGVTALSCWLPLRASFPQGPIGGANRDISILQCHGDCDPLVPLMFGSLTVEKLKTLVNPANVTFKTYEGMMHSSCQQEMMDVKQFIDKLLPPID
# PAFAH1B3 inh: inhibitors of human PAFAH1B3; Q15102; recombinant PAFAH1B3, FP-rhodamine probe, fluorescence polarization; inhibition, % at 3.39 µM; 340,000 compounds, 0.28% hits;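 active means inhibition above the screen-wide average of all tested compounds plus 3 SD, cut at about 25% in these data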;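 further: 0% = enzyme with DMSO only and 100% = wells lacking PAFAH1B3 protein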
# ZTA DNA inh: blocks Epstein-Barr virus ZTA, an EBNA-1 counter-screen | P03206 | ZTA-DNA binding, fluorescence polarization | inhibition, % at 11 µM | 320,000 compounds, 0.15% hits; in the data active means inhibition above about 33%
# Target sequence (P03206 whole entry, looked up): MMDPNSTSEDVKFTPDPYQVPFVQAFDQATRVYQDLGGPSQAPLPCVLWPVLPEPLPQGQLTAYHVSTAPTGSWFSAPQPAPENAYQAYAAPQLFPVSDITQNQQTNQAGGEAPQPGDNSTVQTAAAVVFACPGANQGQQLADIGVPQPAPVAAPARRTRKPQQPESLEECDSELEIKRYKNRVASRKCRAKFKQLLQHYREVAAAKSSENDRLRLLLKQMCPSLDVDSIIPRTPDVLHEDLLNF
# * hit, by the source's call.
entry	molecule	PAFAH2 FP inh	EBNA-1 inh	LYPLA2 inh	pPAFAH FP inh
1	CCOc1ccc(C(C(=O)NC2CCCCC2)N(C(=O)c2ccccn2)c2cccnc2)cc1 (stereo not given)	0.8	12.0	1.2	2.7
2	CCCCCOc1ccc(C(C)(O)C(CN2CCOCC2)c2ccccc2)cc1 (stereo not given)	4.2	0.2	0.0	3.7
3	CC(C)c1ccc(C(C(=O)NC2CCCCC2)N(C(=O)c2ccccn2)c2cccnc2)cc1 (stereo not given)	10.3	4.2	-2.6	-0.3
4	Nc1c(C(O)(C(F)(F)F)C(F)(F)F)cc(C(O)(C(F)(F)F)C(F)(F)F)c2ccccc12	-5.8	7.7	-6.1	10.9
5	COc1ccc(NC(=O)CSc2nnc(-c3cccs3)n2N)c(OC)c1	0.9	-8.9	-0.9	4.2
6	COc1ccc(OC)c(S(=O)(=O)Nc2ccc3c(c2)n(C)c(=O)n3C)c1	4.4	-1.8	1.5	0.4
7	CCc1ccccc1NS(=O)(=O)c1cc(C)ccc1OC	4.6	7.9	1.0	3.5
8	O=C1Nc2cc(C(=O)N3CCN(c4ccccn4)CC3)ccc2S/C1=C\c1ccccc1	-13.4	13.6	16.4	5.6
9	COc1ccc(/C=C2/Sc3ccc(C(=O)N4CCc5ccccc5C4)cc3NC2=O)cc1	-13.8	6.5	-7.3	6.1
10	COc1ccc(OC)c(S(=O)(=O)Nc2ccc(CC(=O)O)cc2)c1	-3.7	3.5	-3.8	3.1
11	COc1ccc(OC)c(C(=O)CSc2nnc(-c3cccs3)n2C)c1	4.3	-6.0	0.4	6.1
12	CCc1cc(C(=O)c2ccc(OC)cc2)c(NC(=O)CN2CCCC2)s1	0.4	6.4	3.4	3.3
13	O=C(NC1CCCCC1)C(c1ccncc1)N(Cc1ccc(F)cc1)C(=O)c1ccccn1 (stereo not given)	9.6	6.7	8.0	5.4
14	COc1cccc(C(C(=O)NC2CCCCC2)N(C(=O)c2ccccn2)c2cccnc2)c1 (stereo not given)	6.2	0.8	-0.2	-2.8
15	CCOC(=O)NC1(NCc2ccccc2)Oc2ccccc2O1	2.3	-10.6	-2.8	29.7*

entry	LYPLA1 inh	PAFAH1B3 inh	ZTA DNA inh
1	-1.4	0.5	3.2
2	4.5	4.0	-3.1
3	-2.7	4.3	-13.2
4	-3.0	7.7	15.2
5	2.2	11.0	-3.1
6	-3.9	-6.1	-2.7
7	-2.6	4.9	15.6
8	-8.3	-1.2	17.4
9	-8.3	-0.4	8.1
10	-3.9	-0.5	14.8
11	2.0	5.0	2.1
12	-3.4	-3.9	-2.9
13	2.8	1.0	-5.7
14	-0.3	6.7	1.1
15	0.9	10.6	0.7

# (listing goes on)
entry	molecule	PAFAH2 FP inh	EBNA-1 inh	LYPLA2 inh	pPAFAH FP inh
16	CCCOc1ccc(C(=O)C(CN2CCCC2)c2ccccc2)cc1 (stereo not given)	0.2	-4.9	1.4	6.7
17	COC(=O)c1sc(N2CCN(c3ccc(Cl)cc3)CC2)nc1N	7.4	-12.2	14.1	6.1
18	CNS(=O)(=O)c1cc(OC)ccc1OC	6.7	-2.2	3.8	-1.1
19	CCOC(=O)NC1(NC2CCCCC2)Oc2ccccc2O1	-2.7	-6.7	2.9	31.6*
20	O=C(/C=C/c1ccc(Cl)c([N+](=O)[O-])c1)Nc1cccc(NC(=O)c2ccco2)c1	-20.1	-6.3	-38.1	-4.5
21	COc1ccc(C(=O)C(CN2CCOCC2)c2ccccc2)cc1 (stereo not given)	3.9	-3.4	6.8	2.3
22	CCOC(=O)N1CCN(C(=O)c2ccc3c(c2)NC(=O)/C(=C\c2cccc(C)c2)S3)CC1	7.0	3.9	24.2	4.1
23	Cc1cccc(-c2n[nH]c(=S)n2/N=C/c2ccc(C)s2)c1	-5.3	1.5	-3.3	12.9
24	O=C1Nc2cc(C(=O)N3CCc4ccccc4C3)ccc2S/C1=C\c1ccccc1	-15.3	6.3	-5.2	0.0
25	Cc1cccc(NS(=O)(=O)c2cc(C(=O)OCC(=O)Nc3cc(C)on3)ccc2C)c1	13.6	5.9	-9.8	33.2*
26	Cn1c(SCC(=O)NC2CC2)nnc1-c1cccs1	3.3	2.8	4.0	5.2

entry	LYPLA1 inh	PAFAH1B3 inh	ZTA DNA inh
16	-4.5	3.4	11.8
17	7.3	0.3	-11.7
18	-1.2	9.4	-12.4
19	2.5	1.5	-25.9
20	-19.4	-10.3	-0.6
21	7.8	5.5	18.3
22	-1.1	-4.8	-13.1
23	-1.1	0.6	-5.1
24	-4.4	-12.2	-12.2
25	-4.0	2.3	-3.3
26	-0.4	-1.8	-0.1

# Some of the entries so far, as tab-separated lines.
entry	Molecule	PAFAH2 FP inh	EBNA-1 inh	LYPLA2 inh	pPAFAH FP inh	LYPLA1 inh	PAFAH1B3 inh	ZTA DNA inh
13	O=C(NC1CCCCC1)C(c1ccncc1)N(Cc1ccc(F)cc1)C(=O)c1ccccn1 (stereo not given)	9.6	6.7	8.0	5.4	2.8	1.0	-5.7
14	COc1cccc(C(C(=O)NC2CCCCC2)N(C(=O)c2ccccn2)c2cccnc2)c1 (stereo not given)	6.2	0.8	-0.2	-2.8	-0.3	6.7	1.1
15	CCOC(=O)NC1(NCc2ccccc2)Oc2ccccc2O1	2.3	-10.6	-2.8	29.7*	0.9	10.6	0.7
16	CCCOc1ccc(C(=O)C(CN2CCCC2)c2ccccc2)cc1 (stereo not given)	0.2	-4.9	1.4	6.7	-4.5	3.4	11.8
17	COC(=O)c1sc(N2CCN(c3ccc(Cl)cc3)CC2)nc1N	7.4	-12.2	14.1	6.1	7.3	0.3	-11.7
18	CNS(=O)(=O)c1cc(OC)ccc1OC	6.7	-2.2	3.8	-1.1	-1.2	9.4	-12.4
19	CCOC(=O)NC1(NC2CCCCC2)Oc2ccccc2O1	-2.7	-6.7	2.9	31.6*	2.5	1.5	-25.9
20	O=C(/C=C/c1ccc(Cl)c([N+](=O)[O-])c1)Nc1cccc(NC(=O)c2ccco2)c1	-20.1	-6.3	-38.1	-4.5	-19.4	-10.3	-0.6
21	COc1ccc(C(=O)C(CN2CCOCC2)c2ccccc2)cc1 (stereo not given)	3.9	-3.4	6.8	2.3	7.8	5.5	18.3
22	CCOC(=O)N1CCN(C(=O)c2ccc3c(c2)NC(=O)/C(=C\c2cccc(C)c2)S3)CC1	7.0	3.9	24.2	4.1	-1.1	-4.8	-13.1
23	Cc1cccc(-c2n[nH]c(=S)n2/N=C/c2ccc(C)s2)c1	-5.3	1.5	-3.3	12.9	-1.1	0.6	-5.1

# This is a subset; the hit share may differ from the screen's.
